TRPV1 potentiator: potentiators of human vanilloid receptor 1 (TRPV1); Q8NER1; TRPV1-expressing cells, Fluo-8 calcium influx, capsaicin EC20 potentiation; host cell line not named in the record; control for the full effect not named in the record; potentiation, % at 8.33 µM; hit rate 0.02% among 320,000; AID 540277; active means potentiation above 80%; inconclusive means 30% to 80%; inactive means below 30%; further: 0% is about no effect
Target sequence (Q8NER1 whole entry, looked up): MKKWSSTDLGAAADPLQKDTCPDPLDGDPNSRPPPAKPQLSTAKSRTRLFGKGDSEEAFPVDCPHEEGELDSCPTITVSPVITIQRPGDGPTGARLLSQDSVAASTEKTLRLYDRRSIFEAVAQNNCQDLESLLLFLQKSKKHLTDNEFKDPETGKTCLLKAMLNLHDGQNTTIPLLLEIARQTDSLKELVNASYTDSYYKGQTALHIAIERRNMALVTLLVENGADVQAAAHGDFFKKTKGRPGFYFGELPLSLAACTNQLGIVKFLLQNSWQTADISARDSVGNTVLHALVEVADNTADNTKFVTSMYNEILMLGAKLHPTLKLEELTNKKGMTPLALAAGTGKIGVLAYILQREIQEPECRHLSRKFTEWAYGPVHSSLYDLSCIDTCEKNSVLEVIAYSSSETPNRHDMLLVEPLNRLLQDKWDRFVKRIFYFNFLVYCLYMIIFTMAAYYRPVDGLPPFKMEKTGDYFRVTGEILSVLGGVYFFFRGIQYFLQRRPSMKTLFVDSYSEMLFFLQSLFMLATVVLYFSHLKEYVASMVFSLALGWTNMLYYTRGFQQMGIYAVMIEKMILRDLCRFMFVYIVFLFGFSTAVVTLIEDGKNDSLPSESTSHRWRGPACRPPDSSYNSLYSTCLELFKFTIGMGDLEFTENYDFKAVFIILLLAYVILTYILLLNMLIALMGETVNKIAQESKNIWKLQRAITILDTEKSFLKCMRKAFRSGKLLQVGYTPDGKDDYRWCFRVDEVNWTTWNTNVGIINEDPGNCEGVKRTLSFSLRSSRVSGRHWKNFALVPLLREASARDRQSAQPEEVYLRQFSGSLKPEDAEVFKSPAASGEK
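Cells expressing TRPV1 were dye-loaded with Fluo-8 and read kinetically: 10 s baseline, 3 min after compound (agonist portion), then 2 min after EC20 capsaicin (allosteric enhancer portion). Calcium-bound dye fluorescence at 480/520 nm.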
TRPML1 inh: inhibitors of human TRPML1 channel. AID 624415. activity change, negative = inhibition, % (test concentration not listed). Q9GZU1. hit rate 0.02% among 390,000. TRPML1-inducible cells, Ca2+ dye fluorescence, FDSS; stronger effect = lower value; inhibition of EC80 agonist-evoked calcium signal; in the data active means activity change below about -50%; inconclusive means about -30% to -50%; inactive means above about -30%;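 further: stimulus is agonist 54-4 at its EC80 concentration; on the % scale 0 is the no-effect control and ±100 the full control effect; compound concentration not given in the record; the text of the record puts the active cut at -80%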
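Tet-induced TRPML1-DL cells loaded with Ca8 no-wash calcium dye were read kinetically on FDSS. Compound addition was followed by EC80 agonist 54-4 (4 uM final); inhibition was read over 110 s.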
Sfp inh: Sfp phosphopantetheinyl transferase inhibition. Q9F4F7. Biochemical Sfp PPTase activity, qHTS. Potency, µM, for the others: max response, negative = inhibition, actives largely listed as inhibitors. hit rate 3.5% among 310,000. AID 1490; active means well fitted inhibition curve with a large enough effect; inconclusive means small, poorly fitted or top-dose-only effect, or another doubt; inactive means no such curve, though single readings can be large or run the other way;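 further: the enzyme is Sfp with the accession as filed and its product quenches rhodamine fluorescence; potency means the concentration at half of the fitted maximal effect; 0% = enzyme reaction without inhibitor and -100% = no enzyme wells; top concentration of the series not given in the record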
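Buffer: 50 mM Hepes-Na pH 7.6, 10 mM MgCl2, 0.01% Nonidet P-40, 0.01% BSA. Enzyme 15 nM, pre-exposed to compound 15 min; substrates then added and fluorescence change tracked over 30 min.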
gsp antagonist: antagonists of gsp mutant (McCune-Albright syndrome); gsp-mutant cells, cAMP HTRF, 30 min; control for the full effect not named in the record; Potency, µM (series often up to 76.9 µM), for the others: at the highest dose activity change, negative = inhibition, actives largely listed as inhibitors; hit rate 0.4% among 340,000; AID 624288; active = falling curve of any shape with a large fitted effect; inconclusive = falling curve, mostly with a smaller effect; inactive = flat or rising curve; cell line not stated here;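 further: intracellular cAMP measured with PDE inhibitor Ro 20-1724 present during compound exposure; potency means the concentration at half of the fitted maximal effect; on the % scale 0 is the no-effect control and ±100 the full control effect; nearly all actives have a fitted effect of over 65% in size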
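G418-selected cells were plated in DMEM/10% FBS for 16-24 h at 37C, then treated with compounds plus the PDE inhibitor […] (300 uM solution added) for 30 min at 37C. Intracellular cAMP was measured by HTRF after 30 min lysis at room temperature.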
Menin-MLL FL inh: menin-MLL binding inhibition, fluorescein peptide; Fluorescence polarization, fluorescein-MLL peptide displacement from menin; FP activity change, % at 61.4 µM; 290,000 tested, under 10 active; AID 1766; inconclusive = falling polarisation curve, or a change in total fluorescence; inactive = total fluorescence flat and polarisation flat or rising; no compound was filed as active; the % refers to the polarisation; negative = inhibition;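 further: % of control where 0% means no effect; inhibitors lower the polarisation; unlabelled MLL peptide was the positive control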
gsp agonist: gsp mutant agonism; gsp mutant cells, cAMP HTRF, 30 min; control for the full effect not named in the record; Potency, µM (highest dose often 76.9 µM), without a hit: at the top dose activation (cAMP increase), actives largely listed as activators; hit rate 0.13% among 340,000; AID 624287; active = well fitted activation curve with a large enough effect; inconclusive = small, poorly fitted or top-dose-only effect, or another doubt; inactive = no such curve, though single readings can be large or run the other way; cell line not stated here;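 further: phosphodiesterase inhibitor Ro 20-1724 added with compounds to block cAMP breakdown; potency means the concentration at half of the fitted maximal effect; nearly all actives have a fitted effect of over 60% in size; about a fifth of the inactives were tested at one dose only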
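Cells in DMEM/10% FBS with G418 were pretreated with compounds in DMSO plus […] (300 uM stock) for 30 min at 37C. cAMP was measured by HTRF (cAMP-d2 plus anti-cAMP antibody-K) after 30 min at room temperature.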
ClpP mod: qHTS Assay for Activators of ClpP; ATP-dependent Clp protease proteolytic subunit (Bacillus subtilis (strain 168)), P80244; purified B. subtilis ClpP, FRET peptide cleavage, 20 min; Potency, µM (doses to about 57.5 µM), for the others: at the top dose activity change, negative = active; hit rate 1.9% among 340,000; active = well fitted falling curve with a large enough effect; inconclusive = small, poorly fitted or top-dose-only effect; inactive = no such curve, though single readings can be large or run the other way; further: potency means the concentration at half of the fitted maximal effect; the source files actives as falling curves though it sought activators and does not explain the sign; nearly all actives have a fitted effect of over 65% in size; many hits overshoot -100%
Target sequence (P80244 whole entry, looked up): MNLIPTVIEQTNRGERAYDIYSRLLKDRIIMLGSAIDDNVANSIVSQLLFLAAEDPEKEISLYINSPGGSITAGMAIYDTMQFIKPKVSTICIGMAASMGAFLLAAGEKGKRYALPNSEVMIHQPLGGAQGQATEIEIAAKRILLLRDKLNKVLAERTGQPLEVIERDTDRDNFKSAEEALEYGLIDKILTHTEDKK
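ClpP 10 microg/mL final, pH 8 Tris/KCl buffer with BSA, glycerol, Tween-20; compound pinned in; FRET-FV substrate; RT 20 min; Ex320/Em430; ΔFRET vs ADEP 5.8 microM, DMSO, no enzyme.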
Starred values were filed as active, the others as inactive; ? = inconclusive; / = no result given; [ ] = dose if it differs, or a comment.

structure | TRPV1 potentiator | TRPML1 inh | Sfp inh | gsp antagonist | Menin-MLL FL inh | gsp agonist | ClpP mod
O=C(O)c1ccc(-c2ccccc2)[nH]1 | 6 | -8 | 18% | 5% | 3.9 | ? | ?
COC(=O)c1c(C(=O)OC)c(-c2ccc(OC)cc2)n2c1CS(=O)C2 (stereo not given) | -14 | 2 | 1% | -6% | 0.4 | ? | -1.5%
O=P(Cc1ccccc1)(Cc1ccccc1)c1ccccc1 | / | 5 | / | 1% | / | 0% | 32µM*
Cc1nc2ccccc2c(=O)n1/N=C/c1ccc(O)cc1 | ? | -1 | 12% | 1% | 0.7 | -31%[inhibitor] | -12%
Cn1c(SCC(=O)Nc2cccc(F)c2)nnc1-c1cc2ccccc2o1 | 5 | 0 | 20% | -12%[15.4 µM] | 2.0 | -1% | -21%
C=CCC[C@H](Cc1ccc(F)cc1)C(=O)OC[C@H](C)NC(=O)[C@H](CC=C)CC(=O)N(CCO)Cc1ccccc1 | / | -11 | / | ? | / | 9% | 3.2%
Cc1ccc(OCc2nc(-c3ccccn3)no2)cc1 | 23 | 20 | 11% | -1% | 1.1 | -3% | 1.2%
CC(C)(C)OC(=O)C[C@@H]1C/C=C\C[C@@H](CC(=O)NCCO)C(=O)NCCOC1=O | / | -1 | / | 5% | / | ? | -4.4%
CCCn1c(N)c(N(CCOC)C(=O)COC(=O)COc2c(C)cc(C)cc2C)c(=O)[nH]c1=O | / | -6 | / | / | / | 24% | -1.4%
C#CCOC(=O)C(NC(=O)c1ccccc1)=C1CCCCC1 | 0 | -7 | 2% | 1% | 1.3 | -41%[inhibitor] | -1.0%
COc1ccc(CCNC(=O)Cn2nnc(-c3ccccc3F)n2)cc1OC | -7 | 6 | 20% | 2% | 0.5 | -15% | -2.9%
C(=C\c1ccccc1)/CSc1nnc(-c2ccccn2)n1Cc1ccco1 | -5 | 19 | 32µM* | 25% | 3.4 | 12% | 0.5%
O=C1C(NS(=O)(=O)c2ccc(Cl)cc2)=C(N2CCCCC2)C(=O)c2ccccc21 | -4 | -16 | -2% | 9% | 3.4 | -1% | 0.3%
CSc1ccc(NC(=O)NCCCN2CCN(c3ccccc3F)CC2)cc1 | -29 | -6 | -6% | 3% | 0.6 | -21% | -1.1%
CC(=O)c1c(NC(=O)C(C)C)nc(C)nc1-c1ccccc1 | 0 | 20 | 4% | -1% | 0.7 | ? | 1.1%
COc1ccc(S(=O)(=O)NCc2cccnc2)cc1 | 1 | 47 | -2% | 9% | -2.9 | -14% | -1.1%
COc1ccc(CNC(=O)c2cc(COc3c(F)cccc3F)on2)cc1OC | 13 | 21 | -2% | -1% | -0.1 | -44%[inhibitor] | -2.6%
C[C@H]1CN([C@@H](C)CO)C(=O)CCCn2nncc2CO[C@@H]1CN(C)S(=O)(=O)c1ccc(-c2ccccc2)cc1 | / | 7 | / | / | / | -4% | 2.2%
CC(=O)c1c(-c2ccc(Cl)cc2)c2ccccc2[nH]c1=O | -1 | -19 | 7% | 1% | 0.5 | 0% | /
CC(=O)Oc1ccc2c(=O)c(/C=N/c3cc(=O)[nH]c(=S)[nH]3)coc2c1 | / | -4 | -23% | -25% | 2.4 | -8% | 1.5%
Clc1ncnc2scc(-c3ccc(Br)cc3)c12 | 6 | -13 | -10% | -1% | 1.9 | ? | /
COc1ccccc1OCc1ccc(C(=O)OCC2CCCO2)o1 (stereo not given) | 0 | 8 | 22% | 7% | 0.2 | 14% | -26%
Cn1c(N)c(C(=O)COC(=O)/C=C/c2ccccc2F)c(=O)n(C)c1=O | / | 10 | / | -11% | / | 15%[15.4 µM] | 0.0%
COC(=O)Cc1ccc(N(Cc2ccccc2F)S(=O)(=O)c2ccc(C)cc2)cc1 | 3 | 3 | 4% | -8% | 1.6 | 2% | /
CC(C)(C)NC(=O)C(c1ccc(OCC(N)=O)cc1)N(C(=O)c1cccnc1)C1CC1 (stereo not given) | 4 | ? | -3% | 5% | 4.6 | 1% | -2.8%
CC1CCC/C(=C\Nc2ccccc2C(=O)O)C1=O (stereo not given) | 21 | -4 | 11% | -3% | 0.7 | -5% | 22µM*
C/C(=N/OCC(=O)Nc1ccc(C)cc1C)c1cccs1 | 4 | -5 | 13% | -3% | 0.0 | -30% | -1.8%
Cc1cccc(NC(=O)c2cc[n+]([O-])cc2)c1C | 0 | -9 | -1% | 7% | -4.7 | 14% | /
CCOC(=O)c1c(NC(=O)C(C)S(=O)(=O)c2cn(CC)c3ccccc23)sc2c1CCCC2 (stereo not given) | 12 | 42 | 8% | -23% | 3.5 | -23% | -8.1%
NC(=O)C1CCN(c2ccc(C(F)(F)F)cc2[N+](=O)[O-])CC1 | -16 | -3 | 20% | -5% | -2.2 | -34%[inhibitor] | 0.8%
CC(=O)Nc1ccc(N=c2cc([N+](=O)[O-])cc(Cl)n2O)cc1 | 0 | -6 | 13% | -7% | -0.8 | 1% | /
Cc1ccc(CNC(=O)CN(CCc2ccccc2)S(C)(=O)=O)cc1 | 5 | 4 | 16% | 11% | -2.2 | 0%[15.4 µM] | /
Cc1ccc(Cl)cc1NC(=O)COC(=O)CN1C(=O)C2CCCCC2C1=O (stereo not given) | 2 | 2 | / | -6% | / | 10% | 1.2%
Cc1cc(NC(=O)COC(=O)C2CC(=O)N(c3ccccc3)C2)no1 (stereo not given) | -8 | -26 | 14% | 8% | -0.3 | -35% | /
CCOC(=O)CSC(=S)NC(=O)c1ccc(OC)cc1 | -4 | 4 | -12% | -7% | -0.2 | -3% | -0.9%
C/C(=N/NS(=O)(=O)c1cccc([N+](=O)[O-])c1)c1ccc2c(c1)OCO2 | 17 | 14 | -7% | -8% | 0.0 | -72%[inhibitor] | -4.5%
CC(=O)C1C(=O)C=C(c2cccs2)CC1c1ccccc1 (stereo not given) | -10 | -7 | 0% | -8% | 0.4 | 23%[15.4 µM] | /
CC(C)(C)NC(=O)C(c1ccncc1)N(C(=O)CNC(=O)c1ccco1)c1ccc(F)cc1 (stereo not given) | -7 | 7 | 14% | -8% | / | -2%[15.4 µM] | 1.4%
Cc1cccc(NC(=O)C(CCC(N)=O)NC(=O)OCc2ccccc2)c1 (stereo not given) | 21 | -19 | 8% | -22% | -2.7 | 24%[15.4 µM] | /
COc1cc(CNCc2ccccc2)c(Br)cc1OC1CCCC1 | -2 | 10 | 7% | 1% | -1.4 | 7%[15.4 µM] | /
COc1ccc(OC)c(S(=O)(=O)NCCC(C)C)c1 | -18 | -7 | 16% | 11% | -0.5 | -3%[15.4 µM] | /
CN1CCN(CC(=O)Nc2nc3c(s2)CCCC3)CC1 | -11 | 13 | -26% | 17% | 1.9 | 15% | 2.0%
COc1ccc(-c2nnc3sc(COc4ccccc4)nn23)cc1 | -6 | 13 | -8% | -9% | -0.3 | 2% | 1.0%
Cc1ccc(NC(=O)[C@@H]2CCCN2S(=O)(=O)c2ccccc2F)cc1S(=O)(=O)N1CCOCC1 | -4 | -15 | -1% | -1% | 3.9 | -33%[inhibitor] | -2.5%
CCC(=O)Nc1ccc(C(=O)NNC(=O)COc2cc(C)ccc2C)cc1 | 12 | -3 | -12% | 10% | 1.2 | 2% | -0.1%
Cc1cc(Br)ccc1SCC(=O)OCC(=O)NC(C)c1ccccc1 (stereo not given) | -18 | 34 | -10% | -6% | 3.9 | -23% | -2.0%
COC(=O)C(C)NC(=S)N1CCN(c2c(F)cc3c(=O)c(C(=O)O)cn(C4CC4)c3c2OC)CC1C (stereo not given) | 5 | -4 | ? | -24% | -0.9 | 21% | 3.6%
CSc1nc(NC(C)(C)C)nc(Oc2ccc(=O)n(C)n2)n1 | 6 | 25 | 6% | 8% | 1.9 | -29% | 0.5%
Cc1ccc(C)c(S(=O)(=O)N2CCN(c3nc(-c4cccnc4)nc4ccccc34)CC2)c1 | 12 | 8 | / | -38% | / | 29% | -12%
CSc1snnc1-c1ccccc1 | 11 | 2 | -1% | 7% | 11 | 2% | /
COc1ccc(C(CC(=O)Nc2cc([N+](=O)[O-])ccc2OC)c2ccccc2)cc1 (stereo not given) | -4 | -11 | 22% | -5% | -2.1 | -3% | -1.8%
CN=Cc1sc2ccccc2c1O | -7 | -9 | -2% | -9% | 3.8 | -2% | -0.5%
CCOC(=O)c1ccc2nc(C(F)(F)F)[nH]c(=O)c2c1 | 5 | 1 | 5% | ? | 3.6 | -6% | 4µM*
COC(=O)[C@]1(C)CCC[C@@]2(C)C3CC[C@]4(OC(C)=O)C[C@@]3(CCC21)CC4=NO (stereo not given in full) | -14 | -14 | / | -15% | / | / | -3.8%
CCN(CC)CCN(C(=O)CN1C(=O)CCC1=O)c1nc2cc3c(cc2s1)OCO3 | 3 | -7 | 1% | 3% | -5.1 | -34%[inhibitor] | 2.7%
O=C1CC(c2ccccc2)CC2=C1CN(C1CCCCC1)CN2 (stereo not given) | -8 | 8 | -2% | 10% | -2.0 | 5% | 3.8%

Other compounds
structure | TRPV1 potentiator | TRPML1 inh | Sfp inh | gsp antagonist | Menin-MLL FL inh | gsp agonist | ClpP mod
CCn1nnnc1SCC(=O)Nc1ccc(N(C)C)cc1 | 2 | -11 | 22% | -16% | 7.9 | -37% | /
CC(=O)Oc1cccc(NC(=O)c2ccc3c(c2)C(=O)N(CC(C)C)C3=O)c1 | -13 | 15 | 8% | -19% | 7.2 | ? | 1.4%
COc1cc(C(=O)NNC(=O)Cc2cccs2)cc(OC)c1OC | / | -4 | / | 6% | / | -1% | 0.4%
CCOC(=O)CN1N=C(c2ccc(C)cc2)CCC1=O | -7 | 6 | 15% | -1% | 11 | 4%[15.4 µM] | -2.7%
COc1cc(C)ccc1OCCOc1cc(C)ccc1Cl | 4 | -2 | -26% | -9% | ? | -7% | -0.8%
CC1CCCN(C(=O)c2ccc3nc[nH]c3c2)C1 (stereo not given) | -4 | 0 | 17% | -12% | 1.8 | 4% | -0.7%
O=C(COc1coc(CN2CCc3ccccc3C2)cc1=O)N1CCOCC1 | 9 | -9 | / | 11% | / | 7% | 28µM*
COc1ccc(-c2c(C#Cc3ccsc3)c3cc(-c4ccc5c(c4)OCO5)ccc3n2C)cc1 | 1 | 6 | / | -4% | / | -44%[inhibitor] | 4.1%

Source: PubChem BioAssay (National Center for Advancing Translational Sciences (NCATS))
